SARS PLP yeast = inhibitors of SARS-CoV papain-like protease in yeast | S. cerevisiae expressing SARS-CoV PLpro, growth rescue; control for the full effect not named in the record | Potency, µM (series often up to 32.9 µM), inactives show at the highest dose activity, positive = growth rescue | 330,000 tested, 0.19% active | AID 485353; active means well fitted rising curve with a large enough effect; inconclusive means small, poorly fitted or top-dose-only effect; inactive means no such curve, though single readings can be large or run the other way; further: 0% is about no effect; nearly all actives have a fitted effect of over 55% in size; growth read by luminescence after 48 h
Cruzain inh Det = cruzain (T. cruzi) inhibition with detergent. AID 1478. 200,000 tested, 0.43% active. purified cruzain, Z-FR-AMC fluorescence, 0.01% Triton. Potency, µM, inactives show max response, negative = inhibition, usual class: inhibitors. P25779;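 further: plate controls were neutral wells for no effect and buffer without enzyme for full effect; nearly all actives have a fitted effect of over 40% in size; top concentration of the series not given in the record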
Target sequence (P25779 123-467 limits assumed): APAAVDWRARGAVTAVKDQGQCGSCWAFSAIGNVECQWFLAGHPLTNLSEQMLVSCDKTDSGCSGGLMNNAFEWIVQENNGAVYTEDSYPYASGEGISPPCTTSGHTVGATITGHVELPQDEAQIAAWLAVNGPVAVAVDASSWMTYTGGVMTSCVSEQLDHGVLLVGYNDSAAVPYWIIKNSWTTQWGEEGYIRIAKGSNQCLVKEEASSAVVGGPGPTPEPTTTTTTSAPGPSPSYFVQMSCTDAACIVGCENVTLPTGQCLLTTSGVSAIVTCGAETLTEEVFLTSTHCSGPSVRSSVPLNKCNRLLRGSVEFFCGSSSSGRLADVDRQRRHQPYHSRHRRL
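Sodium acetate buffer (100 mM, pH 5.5) containing 5 mM DTT and 0.01% Triton X-100 hosted 1.5 nM cruzain and test compound for 15 min at room temperature. Cleavage of 2 uM Z-FR-AMC was then tracked by fluorescence.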
2A StopGo = FMDV 2A StopGo reporter, luciferase signal | 410,000 tested, 1.2% active | AID 1159524 | Potency, µM (highest dose often 57.9 µM), without a hit: top-dose signal change, negative = less light | human cells with a luciferase reporter of 2A StopGo recoding; control for the full effect not named in the record; active = well fitted falling curve with a large enough effect; inconclusive = small, poorly fitted or top-dose-only effect; inactive = no such curve, though single readings can be large or run the other way; tested in HEK293T cells; further: on the % scale 0 is the no-effect control and ±100 the full control effect; nearly all actives have a fitted effect of over 45% in size; luciferase light after 4 h
LASV entry inh = Lassa virus entry inhibition; Potency, µM (doses to about 37.9 µM), without a hit: at the highest dose activity change, negative = inhibition, most hits filed as inhibitors; 300,000 tested, 1.2% active; Lassa virus pseudotype entry inhibition, cell reporter; control for the full effect not named in the record; AID 540256; active means well fitted inhibition curve with a large enough effect; inconclusive means small, poorly fitted or top-dose-only effect, or effect the other way; inactive means flat fitted curve, though single readings scatter; tested in HEK293 cells; further: on the % scale 0 is the no-effect control and ±100 the full control effect; nearly all actives have a fitted effect of over 50% in size; luciferase read-out
Marburg entry inh = blocks Marburg virus binding to or entry into cells. 300,000 tested, 1.8% active. Potency, µM (series often up to 37.8 µM), for inactives: at the highest dose activity change, negative = inhibition, hits mostly inhibitors. Marburg virus pseudotyped entry inhibition, cell reporter; control for the full effect not named in the record; about a third of the inactives were read at about 46 µM; active = well fitted inhibition curve with a large enough effect; inconclusive = small, poorly fitted or top-dose-only effect, or effect the other way; inactive = flat fitted curve, though single readings scatter; tested in HEK293 cells; about a fifth of its hits are not listed in these tables; further: on the % scale 0 is the no-effect control and ±100 the full control effect; luciferase read-out
NS1 function inh = inhibitors of influenza NS1 protein function; S. cerevisiae slowed by influenza A NS1, growth recovery by OD600; Potency, µM (top dose mostly 46.1 µM), without a hit: at the highest dose activity, positive = more growth; 270,000 tested, 0.4% active; AID 2326; active means well fitted rising curve with a large enough effect; inconclusive means small, poorly fitted or top-dose-only effect; inactive means no such curve, though single readings can be large or run the other way; further: nearly all actives have a fitted effect of over 50% in size
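Read-out: OD600 growth recovery of NS1-expressing budding yeast. Cells grown overnight at 30C in -URA glucose medium, washed, resuspended and diluted 1:100 in 2% galactose assay medium, pH 6.0. Same strain lacking NS1 served as positive control.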
Cruzain inh noDet = cruzain (T. cruzi) inhibition without detergent | P25779 | purified cruzain, Z-FR-AMC fluorescence, no detergent | Potency, µM, inactives show max response, negative = inhibition, actives largely listed as inhibitors | 200,000 tested, 2.3% active | AID 1476;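 further: plate controls were enzyme without inhibitor for no effect and buffer without enzyme for full effect; nearly all actives have a fitted effect of over 40% in size; top concentration of the series not given in the record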
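Purified cruzain at 1.5 nM, pre-incubated 15 min with compound at room temperature in 100 mM sodium acetate pH 5.5, 5 mM DTT, 0.00005% Triton X-100. Reaction started with 2 uM Z-FR-AMC; AMC fluorescence increase over 60 s gives rate.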
RE007 growth inh = less growth of the S. pombe RE007 Vpr strain; S. pombe RE007 Vpr strain, BacTiter-Glo ATP luminescence, 24 h; control for the full effect not named in the record; Potency, µM (top dose mostly 92.2 µM), without a hit: top-dose activity change, negative = less growth; 360,000 tested, 0.21% active; AID 651644; active = well fitted falling curve with a large enough effect; inconclusive = small, poorly fitted or top-dose-only effect; inactive = no such curve, though single readings can be large or run the other way;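 further: on the % scale 0 is the no-effect control and ±100 the full control effect; nearly all actives have a fitted effect of over 50% in size; the assay follows cell death caused by Vpr and the record does not say whether a fall means rescue or toxicity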
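Fission yeast RE007 carrying one integrated HIV-1 vpr copy, seeded at OD 0.01 in PMG+AL medium with 23 nL pinned compound. Grown 24 h at 30 degrees; viability read by BacTiter-Glo luminescence after 5 min.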
Active calls of the source: *; ? = inconclusive; nt = not tested or not shown; [ ] = another dose, or the depositor's remark. Unless noted, the call rests on the fitted dose curve; in most records, active means well fitted curve in the direction sought with a large enough effect; inconclusive means small, poorly fitted or top-dose-only effect, or another doubt; inactive means no such curve, though single readings can be large; an effect the other way counts as inactive or inconclusive. Potency means the concentration at half of the fitted maximal effect.

Second line of a record – SARS PLP yeast	Cruzain inh Det	2A StopGo	LASV entry inh	Marburg entry inh	NS1 function inh	Cruzain inh noDet	RE007 growth inh
Cc1ccc2c(c1)N(CCC(=O)NCCN1CCOCC1)C(=O)CO2
→ 0%	0.4%	29%	16%	-19%	-1%	-4%	12%[3.69 µM]
CNC(=O)/C(=C\c1ccc([N+](=O)[O-])cc1)NC(C)=O
→ 7%	-2.2%	-8%	?	14%	3%	-5%	-26%
CCOc1ccccc1NC(=O)N1CCN(S(=O)(=O)c2ccc3c(ccn3C)c2)CC1
→ nt	-3.1%	0%	-2%[46.1 µM]	6%[46.1 µM]	nt	-19%	nt
COc1ccccc1N1CCN(S(=O)(=O)c2ccc(-c3coc(C)n3)cc2)CC1
→ nt	-4.3%	13%	-1%[46.1 µM]	nt	nt	5%	nt
CCN(C(=O)c1cc(S(=O)(=O)N2CCOCC2)cn1C)c1cccc(C)c1
→ 0%	nt	-7%	nt	nt	-2%	nt	4%
C=CCn1c(SCC(=O)c2ccc(OC)cc2)nnc1-c1cc2cccc(OC)c2o1
→ 4%	-4.9%	0%	-27%	?	-21%	?	3%
CCOC(=O)C1CCN(Cc2cc(=O)oc3cc(C)ccc23)CC1
→ 0%	nt	-7%	nt	nt	1%	nt	8%
COc1ccc(NC(=O)Nc2cccc(Cl)c2Cl)c(OC)n1
→ 1%	nt	17%	-9%[46.1 µM]	?	2%	nt	3%
COc1ccc2c(n1)Sc1nc3ccccc3nc1N2
→ -5%	nt	-10%	-7%[46.1 µM]	?	-36%	nt	-19%
COc1cc(C(=O)NCCN2CCOCC2)cc(OC)c1OC
→ 18%	5.6%	3%	?	11%	6%	1%	-9%
O=C(NCC1COc2ccccc2O1)c1cc(S(=O)(=O)N2CCOCC2)ccc1F (stereo not given)
→ -2%	nt	-11%	13%	11%[46.1 µM]	nt	nt	-8%
Cc1c(C(=O)NCCSCc2ccco2)cccc1[N+](=O)[O-]
→ 3%	-2.2%	0%	0%	-29%	10%	1%	-3%
CCc1ccc(NC(=O)C2C3C=CC(C4CC34)C2C(=O)O)cc1 (stereo not given)
→ 6%	0.1%	15%	-18%	3%	-3%	-8%	0%
Cc1cc(C)cc(-n2c(SCC(=O)Nc3nnc(C)s3)nc3c([nH]c4ccccc43)c2=O)c1
→ nt	-1.0%	-15%	?	nt	nt	3%	nt
CCCc1cc(=O)[nH]c(SCC(N)=O)n1
→ 0%	-4.8%	-13%	-1%	15%	1%	-14%	4%
CC(=O)Nc1ccc(S(=O)(=O)NCCC(=O)N2CCC(Cc3ccccc3)CC2)cc1
→ -3%	nt	?	?	?	nt	nt	6%
CCN(CC)S(=O)(=O)c1cccc(C(=O)OCC(=O)N2CC(=O)Nc3ccccc32)c1
→ 2%	-0.9%	13%	?	?	-3%	8%	4%
COC(=O)c1ccccc1NC(=O)c1ncoc1-c1ccco1
→ nt	1.5%	0%	2%[46.1 µM]	nt	nt	-3%	nt
COc1ccc(NS(=O)(=O)c2cc(NC(=O)c3ccco3)ccc2N2CCCC2)cc1
→ 21%	-6.4%	50%[activator]	?	?	?	?	-1%
CCN(CC)C(=O)CSc1nc2ccccc2c(=O)n1CCC(=O)N1CCN(c2ccccc2)CC1
→ 5%	nt	-21%	0%	12%	nt	nt	-6%
Cc1ccc(S(=O)(=O)N2CCN(C(=O)C3CCCC3)CC2)cc1C
→ 2%	nt	-9%	-20%	-9%[46.1 µM]	-5%	nt	-5%
COc1ccc(-n2nnnc2SCC(=O)Nc2nnc(C)s2)cc1
→ 7%	0.9%	-24%	-13%	8%	3%	-14%	-17%
CN(C)S(=O)(=O)N(CC(=O)N1CCOCC1)c1ccccc1
→ 6%	4.2%	11%	?	-2%	5%	8%	-3%
COc1ccccc1N(CC(O)CN1C(C)CCCC1C)S(=O)(=O)c1ccccc1 (stereo not given)
→ 12%	nt	-11%	?	-29%[46.1 µM]	-7%	nt	-11%
Nc1c(C(=O)Nn2cnnc2)cc([N+](=O)[O-])cc1[N+](=O)[O-]
→ 12%	-12%	nt	nt	nt	-12%	8%	nt
Cc1cccc2cc(C#N)c(NCCNC(=O)NC3CCCCC3)nc12
→ -1%	4.0%	13%	?	?	-6%	0%	21%
CC(=O)N1CCc2cc(S(=O)(=O)NC(CC(C)C)C(=O)N3CCCC3)ccc21 (stereo not given)
→ -1%	nt	-10%	nt	nt	4%	nt	5%
COc1cccc(NC(=O)CSCc2n[nH]c(=O)[nH]2)c1
→ -3%	6.2%	-8%	7%	24%	16%	-4%	-2%
COc1cccc(C(=O)NCCCNC(=O)c2ccccn2)c1
→ -2%	nt	18%	-1%[46.1 µM]	19%[46.1 µM]	6%	nt	-5%
O=C(/C=C/c1cc(Br)ccc1O)c1ccco1
→ -21%	nt	?	nt	nt	-93%	nt	?

Next section; it opens with the two that closed the last part.
Second line of a record – SARS PLP yeast	Cruzain inh Det	2A StopGo	LASV entry inh	Marburg entry inh	NS1 function inh	Cruzain inh noDet	RE007 growth inh
COc1cccc(C(=O)NCCCNC(=O)c2ccccn2)c1
→ -2%	nt	18%	-1%[46.1 µM]	19%[46.1 µM]	6%	nt	-5%
O=C(/C=C/c1cc(Br)ccc1O)c1ccco1
→ -21%	nt	?	nt	nt	-93%	nt	?
Cc1ccc(C(=O)COC(=O)CNS(=O)(=O)c2ccc(C)cc2)cc1
→ -1%	nt	-28%	2%	3%	-6%	nt	-16%
CC(=O)c1ccc(N/N=C(/C(N)=O)C2=NC(C)(C)Cc3ccccc32)cc1
→ -6%	-18%	0%	2.9µM*	3.3µM*	-23%	-10%	-21%
Cc1ccc2nc(Cl)c(C3CC(c4cccs4)=NN3C(=O)CCCC(=O)O)cc2c1 (stereo not given)
→ -15%	-7.5%	-5%	12%[46.1 µM]	2%[46.1 µM]	-4%	-6%	-18%
O=C(C1=C(O)C(=O)N(Cc2ccco2)C1c1cccc(O)c1)c1ccco1 (stereo not given)
→ -1%	nt	50%[activator]	?	-7%[46.1 µM]	-3%	nt	-8%
CCOC(=O)c1ccccc1NC(=O)N1CCC(N2CCN(Cc3ccccc3)C(=O)C2=O)CC1
→ nt	0.8%	-10%	7%[46.1 µM]	nt	nt	19%	nt
S=c1[nH]nc(COc2ccc(Cl)cc2)n1-c1ccccc1
→ -4%	nt	-10%	3%[46.1 µM]	3%[46.1 µM]	30%	nt	6%
Cc1cccc(CN2CCC(CNC(=O)CCNC(=O)Cn3ccc4ccccc4c3=O)CC2)c1
→ 2%	2.7%	-7%	-2%	-13%	-4%	-9%	-11%
COc1cccc(C2=CC(c3ccc(OC)c(OC)c3OC)n3nnnc3N2)c1 (stereo not given)
→ 22%	-3.9%	3%	14%	-24%	-12%	25%	-1%
O=C(Nc1cc(Cl)cc(Cl)c1)N1CCCC1
→ -5%	nt	4%	nt	nt	-92%	nt	?
CCCCOC(=O)NCN1C(=O)C2C3C=CC(C3)C2C1=O (stereo not given)
→ 0%	5.6%	-15%	17%	-2%	1%	2%	14%
Cc1ccn2c(C(=O)CSc3ccc(Cl)cc3Cl)c(C)nc2c1
→ -3%	5.9%	-14%	13%	19%	-9%	-5%	2%
O=C(C1CC1)N(Cc1ccco1)c1nc(-c2ccccc2)cs1
→ -7%	-1.0%	7%	-20%	-23%	-4%	-10%	-11%
O=C(NCCN1CCN(C(=O)c2cccc(Br)c2)CC1)C(=O)Nc1ccc(Br)cc1
→ -3%	nt	-28%	?	?	-30%	nt	4%
O=C(CNC(=O)c1cccs1)Nc1cccc(S(=O)(=O)N2CCOCC2)c1
→ 0%	nt	5%	-17%	23%	nt	nt	-5%
CN=C1SC(CC(=O)Nc2cccc(Cl)c2Cl)C(=O)N1C (stereo not given)
→ -6%	2.7%	-3%	27%	6%[46.1 µM]	1%	16%	-2%
CCn1c(SCC(=O)Nc2ccc(N3CCOCC3)cc2)nnc1-c1ccco1
→ 2%	nt	-1%	-3%	14%	nt	nt	-3%
Cc1cccc(C(=O)Oc2ccc(/C=N/NC(=O)c3ccncc3)cc2)c1
→ -2%	nt	10%	26%	16%	nt	nt	-16%
O=C1[C@@H]2Cc3c([nH]c4ccccc34)CN2C(=O)CN1CCO
→ 1%	nt	-6%	9%[46.1 µM]	5%[46.1 µM]	-1%	nt	12%
COc1ccccc1CNCCc1ccc(F)cc1
→ -1%	nt	-29%	nt	nt	1%	nt	9%
CC(=O)Nc1ccc(S(=O)(=O)N2CCN(C(=O)c3ncoc3-c3ccc(C)cc3)CC2)cc1
→ 1%	nt	-2%	-8%	-16%[46.1 µM]	-5%	nt	-1%
CC(C)CSC1=NSC2=NC(=O)/C(=C\c3ccccc3)C(=N)N12
→ 1%	nt	?	?	1%[46.1 µM]	nt	nt	-1%
CCCCC(CC)CNC(=O)CC1Nc2c3ccccc3nc(=S)n2C1=O (stereo not given)
→ 2%	nt	8%	4%	-22%[46.1 µM]	nt	nt	-18%
CC(C)(C)c1ccc(OCC(=O)N2CCN(c3ncccn3)CC2)cc1
→ 2%	nt	-16%	nt	nt	-30%	nt	4%

In the list so far, these contain two or more sulfur atoms.
Second line of a record – SARS PLP yeast	Cruzain inh Det	2A StopGo	LASV entry inh	Marburg entry inh	NS1 function inh	Cruzain inh noDet	RE007 growth inh
Cc1cc(C)cc(-n2c(SCC(=O)Nc3nnc(C)s3)nc3c([nH]c4ccccc43)c2=O)c1
→ nt	-1.0%	-15%	?	nt	nt	3%	nt
COc1ccc(-n2nnnc2SCC(=O)Nc2nnc(C)s2)cc1
→ 7%	0.9%	-24%	-13%	8%	3%	-14%	-17%
O=C(CNC(=O)c1cccs1)Nc1cccc(S(=O)(=O)N2CCOCC2)c1
→ 0%	nt	5%	-17%	23%	nt	nt	-5%
CC(C)CSC1=NSC2=NC(=O)/C(=C\c3ccccc3)C(=N)N12
→ 1%	nt	?	?	1%[46.1 µM]	nt	nt	-1%
